High-throughput results: PubChem BioAssay, National Center for Advancing Translational Sciences (NCATS)
PINK1 modulator: PINK1 expression modulation; PINK1 immunofluorescence, high-content cytometry, 24 h; Potency, µM (titrated, usually from 76.6 µM), for the others: top-dose activation (PINK1 increase), actives largely listed as activators; 0.2% of 410,000 active; AID 624263; active = well fitted activation curve with a large enough effect; inconclusive = small, poorly fitted or top-dose-only effect; inactive = flat fitted curve, though single readings scatter; cell line not stated here;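 also: potency is read from the fitted curve at half-maximal effect; % of control where 0% means no effect; nearly all actives have a fitted effect of over 65% in size; a mitochondrial uncoupler was the plate control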
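A stable cell line was treated with compounds at 5 concentrations for 24 hours, with CCCP as control. PINK1 levels and mitochondrial localization were measured by immunofluorescence with mitochondrial, cell and nuclear markers after fixation, read by laser-scanning cytometry.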
CtBP-E1A inh: inhibitors of CtBP/E1A interaction; AID 651724; 0.49% of 340,000 active; activity change, % (concentration not given with the values); AlphaScreen GST-E1A/His-CtBP binding, 1536-well; hits give low values; control for the full effect not named in the record; in the data active means activity change below about -65%; inconclusive means about -30% to -65%; inactive means above about -30%; also: % is scaled to controls: 0 for no effect and ±100 for the full control effect
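GST-E1A and His-tagged CtBP (125 nM each as 5X stock) were preincubated with pin-transferred compound for 2 h at 37 °C in the dark, then glutathione donor and nickel acceptor beads were added for 1 h before AlphaScreen reading.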
D2 agonist: activates the human D2 dopamine receptor; 0.084% of 360,000 active; DiscoveRx PathHunter D2 beta-arrestin, luminescence, 90 min; 100% = 57 uM dopamine signal; activation, % (no concentration beside the values); P14416; AID 624465; in the data active = activation above about 40%; inconclusive = about 15% to 40%; inactive = below about 15%; also: compound concentration not given in the record; the text of the record calls up to 30% inactive
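DiscoveRx PathHunter D2 beta-arrestin cells (2,100/well) attached overnight, then compound-stimulated 90 min at 37 C in HBSS/10 mM HEPES/0.1% Tween-20 buffer; beta-galactosidase complementation read by luminescence after 1 h at ambient temperature. Dopamine 57 uM final (EC100) as control.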
TRPML1 agonist: human mucolipin-1 channel agonism. AID 624414. Q9GZU1. 0.12% of 410,000 active. TRPML1-expressing cells, Ca2+ dye fluorescence, FDSS; host cell line not named in the record; reference of the full effect not given here. activation, % (test concentration not listed); in the data active = activation above about 50%; inconclusive = about 30% to 50%; inactive = below about 30%; also: 0% is about no effect; the text of the record puts the active cut at 80%
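Agonist activity was taken from a 110 s kinetic Ca2+ dye read on the FDSS after pinning compounds onto TRPML1-DL cells. The cells were seeded at 1,500/well with Tet inducer, incubated about 16 h, then dye-loaded at room temperature.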
D2 PAM: human D2 receptor positive allosteric modulation; P14416; DiscoveRx D2 beta-arrestin cells, luminescence, 90 min; 100% = 57 uM dopamine signal; potentiation, % (test concentration not listed); 0.23% of 360,000 active; active = potentiation of 50% or more; inconclusive = 30% to 50%; inactive = 30% or less;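 also: compound concentration not given in the record; tested on top of an EC20 dose of dopamine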
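PathHunter beta-arrestin assay in DiscoveRx D2 cells. Compounds were added with an EC20 of dopamine (50 nM final) for 90 min at 37 deg C. Luminescence was read 1 h after detection reagent, with 57 uM dopamine as the EC100 control.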
Six1-Eya2 blk: blocks human Six1 binding to Eya2 | Q15475+O00167 | AlphaScreen GST-Six1/His-Eya2 binding, biochemical; hits give low values; control for the full effect not named in the record | activity change, % (concentration not given with the values) | 0.56% of 360,000 active | AID 651725; in the data active = activity change below about -65%; inconclusive = about -30% to -65%; inactive = above about -30%; also: % is scaled to controls: 0 for no effect and ±100 for the full control effect
Target sequence (O00167 whole entry, looked up): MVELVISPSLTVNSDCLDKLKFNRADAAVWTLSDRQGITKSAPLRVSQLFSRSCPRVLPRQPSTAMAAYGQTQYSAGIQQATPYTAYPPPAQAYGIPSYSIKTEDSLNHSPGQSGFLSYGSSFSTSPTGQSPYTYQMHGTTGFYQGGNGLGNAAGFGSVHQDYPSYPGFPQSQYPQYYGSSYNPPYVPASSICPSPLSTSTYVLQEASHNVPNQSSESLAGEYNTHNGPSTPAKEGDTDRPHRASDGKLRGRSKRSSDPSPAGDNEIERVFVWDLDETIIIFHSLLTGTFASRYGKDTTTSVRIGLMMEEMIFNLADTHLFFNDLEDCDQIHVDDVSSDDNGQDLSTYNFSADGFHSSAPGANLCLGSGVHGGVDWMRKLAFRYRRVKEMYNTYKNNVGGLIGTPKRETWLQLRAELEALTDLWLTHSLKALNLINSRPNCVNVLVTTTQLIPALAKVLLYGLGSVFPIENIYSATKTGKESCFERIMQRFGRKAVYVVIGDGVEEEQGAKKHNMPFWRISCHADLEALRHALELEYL
Target sequence (Q15475 whole entry, looked up): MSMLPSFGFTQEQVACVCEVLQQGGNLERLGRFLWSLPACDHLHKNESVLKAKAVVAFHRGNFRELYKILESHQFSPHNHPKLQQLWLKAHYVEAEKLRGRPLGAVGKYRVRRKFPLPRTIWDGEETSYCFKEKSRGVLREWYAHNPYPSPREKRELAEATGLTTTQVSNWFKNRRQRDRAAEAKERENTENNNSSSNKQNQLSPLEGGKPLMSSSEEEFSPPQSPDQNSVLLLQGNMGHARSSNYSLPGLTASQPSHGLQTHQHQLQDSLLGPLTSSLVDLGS
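Compounds are tested against tagged Six1 and Eya2 proteins bridged by glutathione donor and nickel acceptor beads; after a one-hour incubation at 37 °C without light, AlphaScreen emission is recorded.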
* marks the source's active call; other numbers are inactive results; ? = inconclusive; . = not tested or not shown; [ ] = remark or other dose.

Every second line gives: PINK1 modulator	CtBP-E1A inh	D2 agonist	TRPML1 agonist	D2 PAM	Six1-Eya2 blk
[1] COc1ccc(/C=N\NC(=O)c2cccc(F)c2)cc1COc1ccccc1
  0.2%	6.9	3.4	0.1	-5.1	-1.1
[2] O=C1NC(=Nc2ccccc2Cl)S/C1=C\c1ccc(C(=O)O)cc1
  -0.7%	.	-3.3	1.6	-15.1	-5.7
[3] O=C(/C=C/c1ccccc1)Nc1cc(C(=O)O)cc(C(=O)O)c1
  -0.5%	8.3	-4.6	-0.1	-5.2	0.4
[4] COc1ccc(N(C(=O)c2ccccc2)S(=O)(=O)c2cccs2)cc1
  1.5%	5.5	-2.4	2.2	-1.4	1.8
[5] O=C(Cn1cnc(S(=O)(=O)N2CCOCC2)c1)Nc1ccc(OC(F)(F)F)cc1
  -0.2%	0.7	-0.8	-0.1	-10.6	2.0
[6] CCOC(=O)c1cnc(Nc2nc3ccccc3o2)nc1CSc1nnc(C)s1
  -4.8%	?	-4.5	5.0	-3.3	-29.2
[7] CNCc1ccccc1OCC(=O)Nc1ccccc1OC
  -0.4%[38.3 µM]	-4.4	-0.9	-0.5	-10.8	2.7
[8] COc1ccc(/C=C2\SC(=S)N(CCCC(=O)Nc3ccc(O)cc3)C2=O)cc1
  0.1%	-23.6	5.3	.	-3.4	-18.7
[9] CC1CCCCC1NC(=O)CCNS(=O)(=O)c1ccc2c(c1)CCC(=O)N2 (stereo not drawn)
  -0.8%	.	0.8	5.1	-1.1	-0.9
[10] COc1ccc(C(C)=O)cc1CC(=O)N(Cc1ccccc1)c1ccccc1
  -0.6%	-0.2	-10.9	-1.0	-1.4	-4.9
[11] CSc1ccc(CN2CCC2(C)C(=O)NCc2cccc(C(F)(F)F)c2)cc1 (stereo not drawn)
  ?	-1.1	-2.8	-0.6	-20.6	-1.8
[12] Cc1ccc(-c2cc(C(=O)N3CCCCCC3)no2)cc1
  2.0%	4.0	3.3	-0.1	-7.2	-0.5
[13] CCC(C)CN1CCC(CO)(Cc2ccccc2Cl)CC1 (stereo not drawn)
  -1.9%	-4.5	-1.5	-0.1	-12.1	3.4
[14] O=C(CSc1ccc(F)cc1)Nc1ccc2c(c1)C(=O)NC2=O
  2.1%	.	-8.3	0.7	-3.4	-0.9
[15] COc1ccc(N(CCCN2C(=O)c3cccc4cccc(c34)C2=O)C(=O)c2cccc(OC)c2)cc1
  1.7%	-20.5	1.0	0.9	7.0	-8.1
[16] COC(=O)CSc1nnc(-c2ccncc2)n1N
  1.4%	0.5	-0.3	-0.6	1.9	0.0
[17] Oc1cccc(/C=N/Nc2cc(N3CCOCC3)nc(N3CCOCC3)n2)c1
  0.8%	-15.8	-1.6	2.6	-6.9	-10.0
[18] c1csc(CNCCCN2CCOCC2)c1
  0.8%	8.9	0.8	-0.1	1.7	6.8
[19] COC(=O)c1ccc(Cn2nc(-c3ccccc3)ccc2=O)cc1
  -0.9%	4.2	6.3	3.6	-3.3	3.5
[20] CC(=O)N(\C=C/C=C/C=C1\Sc2ccccc2C1=O)c1ccccc1
  ?	14.0	2.2	2.4	5.1	-13.1
[21] COc1ccc(CC(=O)Nc2nc(C)cs2)cc1
  0.7%	-0.6	-0.9	-1.2	-6.2	-1.9
[22] CC(C)(C)NC(=O)Cn1cnc2cc([N+](=O)[O-])ccc2c1=O
  0.3%	1.5	8.1	-1.3	15.8	-3.7
[23] COc1ccc(CNC(=O)C(=O)NCCC2CCCCN2S(=O)(=O)c2ccc(C)cc2)cc1 (stereo not drawn)
  -1.9%	-4.8	-2.7	0.4	-12.0	-7.2
[24] C[C@H]1[C@@H](c2ccccc2)Oc2ccc(Cl)cc2S(=O)(=O)N1Cc1ccc(F)cc1F
  2.0%	3.4	-3.4	-0.6	-1.5	-1.7
[25] Cc1ccc(NC(=S)NC(CO)C(O)c2ccc([N+](=O)[O-])cc2)cc1 (stereo not drawn)
  0.0%	2.3	-4.6	-0.2	-2.9	-0.5
[26] COc1ccccc1CCC(=O)Nc1ccc2c(c1)CN(Cc1ccc(C)o1)CC2
  0.5%	0.8	-7.1	-0.6	-30.8	-8.1
[27] Cc1ccc(S(=O)(=O)N2CCN(C(=O)CSc3n[nH]c(N)n3)CC2)c(C)c1
  0.8%	0.4	0.6	0.9	-1.1	-0.7
[28] Cc1ccc(N2CC(C(=O)Nc3cc(C)ccc3F)CC2=O)cc1 (stereo not drawn)
  -0.1%	4.9	-1.7	-0.8	-6.6	-1.5
[29] O=C(CN1CCN(c2ccccc2)CC1)Nc1ccc(Oc2ccccc2)cc1
  4.0%	-14.6	11.4	-0.5	17.6	-21.9
[30] CCCOC(=O)CSc1nc(N)c(C#N)c(CC)c1C#N
  -0.2%	1.3	-2.6	0.9	0.0	1.8
[31] Cc1cccc(NC(=O)CSc2nc(N)c(NC(=O)c3cccs3)c(=O)[nH]2)c1
  1.2%	-20.4	-5.9	0.0	0.8	-3.1
[32] Cc1ccc([N+](=O)[O-])cc1NC(=O)c1cccs1
  2.3%	.	-8.0	0.2	9.8	7.0
[33] Cc1ccc2nc(/C(C#N)=C\c3ccc([N+](=O)[O-])o3)[nH]c2c1
  ?	-1.9	11.3	13.5	19.4	11.8
[34] COC(=O)c1ccc(COC(=O)C(CCSC)NC(=O)COc2ccccc2)cc1 (stereo not drawn)
  0.7%	0.2	-1.4	0.9	-15.2	-4.6
[35] CC(=O)C1C(=O)c2c(cccc2[N+](=O)[O-])C1=Nc1cccc(Cl)c1 (stereo not drawn)
  1.1%	-5.6	6.6	-0.6	6.6	?
[36] CC1(C)OC(=O)C(=CNc2cccc(O)c2)C(=O)O1
  6.9%[38.3 µM]	3.2	-0.3	0.5	-1.9	4.4
[37] CC[C@H](C)[C@H]1CNC(=O)C(=O)N1CC1CCN(CC2CCC(C)CC2)CC1 (stereo partly drawn)
  2.2%	-7.9	-2.3	-0.2	-15.3	-16.2
[38] Cc1ccc(S(N)(=O)=O)cc1
  0.4%	3.5	-2.0	-0.6	-2.3	6.3
[39] O=S(=O)(Nc1ccc(C(O)(C(F)(F)F)C(F)(F)F)cc1)c1cccc2ccccc12
  21.3%	0.8	-3.1	0.1	-5.7	1.0
[40] CCOC(=O)C1=C(COC(=O)/C=C/c2cc(OC)c(OC)c(OC)c2)NC(=O)NC1C (stereo not drawn)
  5.3%	-13.5	1.1	1.8	18.8	-3.9
[41] Cc1c(NC(=O)CN(c2ccc(F)cc2)S(=O)(=O)c2ccccc2)c(=O)n(-c2ccccc2)n1C
  -0.6%	4.6	-1.1	0.0	18.6	0.0
[42] CCN(Cc1nc2ccccc2c(=O)[nH]1)C(=O)CN1C(=O)NC2(CCCCC2C)C1=O (stereo not drawn)
  1.5%	.	-1.1	-0.6	2.5	-7.0
[43] COc1ccccc1N1CCN(S(=O)(=O)c2ccc(-n3cnnn3)c(C)c2)CC1
  -0.7%	0.7	1.3	0.3	-14.2	2.6
[44] O=C1c2ccc([N+](=O)[O-])cc2C(=O)N1c1ccc(Cl)cn1
  3.9%	-1.7	2.7	0.1	-9.8	13.7
[45] O=c1[nH]c(C2CCN(S(=O)(=O)c3cccc(Cl)c3)CC2)nc2c1nnn2Cc1ccccc1
  -0.3%	-8.7	-6.4	-1.2	-30.7	-18.4
[46] C[C@H](NC(=O)COc1ccccc1)C(=O)OCC(=O)c1cc2ccccc2o1
  3.3%	21.3	-17.5	1.2	-40.7	8.8
[47] CC1Cc2ccccc2N1C(=O)CSc1nc2ccccc2s1 (stereo not drawn)
  1.1%	.	1.4	-0.1	-3.1	0.3
[48] CC1Cc2ccccc2N1C(=O)CN(C)CC(=O)Nc1cccc(F)c1 (stereo not drawn)
  3.9%	.	-1.6	-1.5	-14.0	4.0
[49] Cc1ccc(N(C(=O)c2csnn2)C(C(=O)NC2CCCC2)c2cccnc2)cc1 (stereo not drawn)
  -1.9%	3.3	-1.7	-0.6	-3.8	10.0
[50] CO[C@H]1O[C@H](C)[C@@H](O)C[C@H]1NC(=O)OCc1ccccc1
  0.1%	6.9	-1.9	-0.4	-1.4	0.4
[51] COc1ccc(S(=O)(=O)Nc2nncs2)cc1
  -1.2%	-0.8	-0.8	0.6	-2.2	1.3
[52] Cc1ccc(NC(=O)c2nc[nH]c2C(=O)N2CCN(c3ccccc3)CC2)cc1
  0.3%	-0.1	-1.5	2.5	-9.6	-5.9
[53] O=C(NCCc1nnc2ccc(N3CCCC3)nn12)c1ccccc1
  2.0%	-1.2	-2.8	-0.6	-5.4	-17.3
[54] C[C@H](CO)NC(=O)c1[nH]cnc1C(=O)Nc1cccc(Cl)c1
  1.4%	-3.1	-1.7	.	.	-5.6
[55] Cn1c(SCc2ccc(F)cc2)nnc1-c1cccs1
  -2.5%[38.3 µM]	7.0	-1.0	0.8	-10.1	0.0
[56] Cc1ccc(C)c(OCCn2cc(/C=C(\C#N)C(=O)NCC3CCCO3)c3ccccc32)c1 (stereo not drawn)
  0.0%	-6.9	-1.7	2.9	-3.9	-7.5
[57] COc1ccccc1C(C)NC(=O)c1ccc(C)o1 (stereo not drawn)
  10.4%	3.5	-0.3	0.8	2.2	1.5
[58] COc1cc(C2N(C)CCC3(OCCO3)C2(C)C)cc(OC)c1OC (stereo not drawn)
  -1.4%	10.5	-2.8	0.4	-9.1	-1.5
[59] COc1cc(C2Sc3ccccc3NC3=C2C(=O)OC3)cc(OC)c1OC (stereo not drawn)
  13.3%	-9.3	-3.6	-0.2	-4.9	-0.3
[60] CC(NC(=O)c1ccc(NC(=O)CC2SC(N3CCCC3)=NC2=O)cc1)c1ccc(F)cc1 (stereo not drawn)
  0.2%	0.0	10.1	0.6	2.5	22.3

The results go on.
Every second line gives: PINK1 modulator	CtBP-E1A inh	D2 agonist	TRPML1 agonist	D2 PAM	Six1-Eya2 blk
[61] O=C(NCC1CCCCC1)c1cc(Br)ccc1Cl
  2.6%	7.8	-0.6	0.7	-4.1	7.7
[62] Cc1cc(S(=O)(=O)N2CCOCC2)ccc1OCC(=O)Nc1ccc(F)cc1
  10.9%	18.6	0.8	-1.4	-13.8	2.8
[63] O=C1CNC(c2ccccc2)C(c2ccccc2)N1 (stereo not drawn)
  0.6%	-11.2	-4.2	0.8	-9.4	2.4
[64] COc1ccc(/C=N/NC(=O)c2cccc(OC(F)(F)C(F)F)c2)c(OC)c1OC
  1.4%	12.1	2.5	1.9	-22.9	-8.1
[65] CCC(C)c1ccc(NC(=O)COC(=O)CCNS(=O)(=O)c2cccs2)cc1 (stereo not drawn)
  0.0%	.	2.9	0.6	-5.0	-6.3
[66] Cc1nc(Nc2ccc(O)cc2)c2c3c(sc2n1)CCCC3
  -0.7%	-19.6	1.6	1.7	3.6	8.9
[67] CCOc1ccccc1N(CC(=O)N(C)Cc1ccccc1)S(=O)(=O)c1ccccc1
  1.1%	-1.1	-3.4	1.6	-1.1	3.8
[68] CCc1n[nH]c(=S)n1/N=C/c1ccc2c(c1)OCO2
  -7.6%[38.3 µM]	-2.3	3.5	-0.1	-3.0	-3.0
[69] COc1cc(/C=c2\s/c(=C\C(=O)C(C)(C)C)[nH]c2=O)cc(OC)c1OC
  5.2%	.	4.3	1.1	-0.4	0.6
[70] CCC(C)(C)NC(=O)C(c1cccc(OC)c1OC)N(Cc1ccc(OC)cc1)C(=O)CCC(=O)Nc1cc(C)on1 (stereo not drawn)
  5.5%	1.1	-0.1	0.0	-4.0	-1.1
